# PV pol inh = poliovirus RdRp elongation inhibitors, primary screen, biochemical, fluorescence polarization, total intensity | Genome polyprotein (Poliovirus type 1 (strain Mahoney)), P03300 | % elongation, % (compound at 16.7 µg/mL) | 0.66% of 150,000 active | poliovirus polymerase elongation; stronger effect = lower value | AID 588519, 2011; in the data active means % elongation below about 90%; further: some results filed as inactive read as strong as hits
# Target sequence (P03300 1749-2209 limits assumed): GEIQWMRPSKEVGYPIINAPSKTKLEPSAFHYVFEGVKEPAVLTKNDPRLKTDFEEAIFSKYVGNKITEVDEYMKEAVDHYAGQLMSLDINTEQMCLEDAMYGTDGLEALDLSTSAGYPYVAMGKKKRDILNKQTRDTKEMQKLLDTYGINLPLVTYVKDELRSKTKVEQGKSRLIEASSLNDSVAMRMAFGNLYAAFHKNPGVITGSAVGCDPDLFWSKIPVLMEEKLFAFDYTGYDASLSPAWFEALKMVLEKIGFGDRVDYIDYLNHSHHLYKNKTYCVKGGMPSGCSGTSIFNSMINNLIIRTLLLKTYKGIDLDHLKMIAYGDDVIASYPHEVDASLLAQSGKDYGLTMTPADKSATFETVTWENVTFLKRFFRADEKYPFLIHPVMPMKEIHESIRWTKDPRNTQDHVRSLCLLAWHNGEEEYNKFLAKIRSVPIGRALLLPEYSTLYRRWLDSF
# PV pol inh intensity = also measured in PV pol inh; calls as there; % elongation; measured here: total intensity read-out; formula for this scale not given here;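 total fluorescence in place of polarization; lower means less elongation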
# An asterisk follows results filed as active. The list is partial; rates above refer to the full screens.
SMILES,PV pol inh,PV pol inh intensity
CCN1CCN(Cc2c(O)ccc3oc(C)c(C(=O)Nc4ccc(OC)cc4)c23)CC1,105,97
CC(=O)c1cccc(NC(=O)CSc2nc3c(=O)n(C)c(=O)n(C)c3n2C)c1,112,113
Clc1ccc(C(c2ccccc2)c2c[nH]c3ccccc23)s1 (stereo not given),109,100
Cc1ccc(NC(=O)Cn2c(=O)cc(-c3ccccc3)c3c(C)nn(C)c32)c(Cl)c1,110,107
COc1ccc(CC(=O)NCC(c2ccc(N(C)C)cc2)N2CCOCC2)cc1OC (stereo not given),109,117
CCC(NC(=O)Nc1ccc(OC)c(OC)c1)c1c(-n2cccc2)sc2c1CCN(C)C2 (stereo not given),108,106
CC(=O)NCCNC(=O)CCCc1nnc2n(CCC(C)C)c(=O)c3sccc3n12,107,105
Cc1cccc(NC(=O)C(=O)NCC(c2cccnc2)N2CCN(Cc3ccccc3)CC2)c1 (stereo not given),110,112
COc1ccccc1CNC(=O)C(=O)NCC(c1cccnc1)N1CCN(c2ccccc2)CC1 (stereo not given),110,113
CC(C)c1ccc(NS(=O)(=O)c2ccc3nc(-c4ccccc4)[nH]c3c2)cc1,110,109
COC(=O)c1ccccc1NC(=O)c1ccc(-c2nc(CSc3ccc(C)cc3)c(C)o2)cc1,115,113
COc1ccc(NC(=O)CCc2nc3cccnc3n2-c2ccccc2)cc1Cl,106,109
Cc1c(O)nc(SCC(=O)Nc2ccc(Cl)cc2Cl)n(-c2ccc(F)cc2)c1=O,101,105
O=C(NCCC1=CCCCC1)c1ccc2c(c1)ncn2-c1cccc(Cl)c1,107,113
CCCCn1c(-c2ccc(C)cc2)c(C)n2c3c(=O)n(C)c(=O)n(C)c3nc12,104,105
Cn1c(=O)n(C)c2cc(N3CCOCC3)c(NC(=O)c3c(F)cccc3F)cc21,100,102
CCN1CCc2c(sc(-n3cccc3)c2C(C)NC(=O)Nc2ccc(Br)cc2)C1 (stereo not given),121,126
CCOC(=O)c1c(C)[nH]c(C)c1S(=O)(=O)N1CCN(c2cccc(C(F)(F)F)c2)CC1,107,101
Cn1c(=O)c2sccc2n2c(CCCC(=O)NC3CCCCC3)nnc12,113,114
Cc1nc2c(C(=O)NCCc3ccc(Cl)cc3)c[nH]n2c(=O)c1Cc1ccccc1F,106,108
Cc1nc2c(-c3ccccc3)c(C)nn2c(C)c1CCC(=O)NCc1ccccc1Cl,112,109
CCCCSc1nnc2n(-c3ccc(OC)cc3)c(=O)c3c4c(sc3n12)COC(C(C)C)C4 (stereo not given),104,106
Cc1c(Cl)cccc1NC(=O)C(C)n1c(=O)cc(C)c2c(C)nn(-c3ccccc3)c21 (stereo not given),106,111
COc1ccccc1CNC(=O)c1ccc(-c2nc(CS(=O)c3ccccc3)c(C)o2)cc1 (stereo not given),109,111
CCC(Sc1ncnc2sc3c(c12)CCCC3)C(=O)OCC(C)C (stereo not given),105,111
O=C(CN1CCN(Cc2ccccc2Cl)C1=O)NCCc1ccc(Cl)cc1,113,112
COCCCNC(=O)CCc1c(C)nc2nc(-c3cc(OC)cc(OC)c3)nn2c1C,102,104
Cc1cc(C)nc(-n2nc(C)c3c2N(Cc2ccccc2C)C(=O)CC3c2ccc(Cl)cc2)n1 (stereo not given),106,111
Cc1ccc2c(c1)CC(C)N2S(=O)(=O)c1nnc(NC(=O)C(C)C)s1 (stereo not given),107,109
COCCCNC(=O)NC(CCC(C)C)c1c(-n2cccc2)sc2c1CCN(C)C2 (stereo not given),116,121
O=S(=O)(Nc1cccc(-c2ccc(N3CCOCC3)nn2)c1)c1ccc(F)cc1F,101,103
COc1ccc(NC(=O)COc2ccc(-c3nn(C)c(=O)c4ccccc34)cc2)cc1,105,112
CCOc1ccc(NS(=O)(=O)c2ccc3[nH]cc(C(=O)N4CCCCCC4)c(=O)c3c2)cc1,113,107
COc1cccc(-c2nc(SCc3cccc(Br)c3)n3[nH]c(=O)cc3n2)c1,99,105
CCOC(=O)c1c(C)[nH]c(C)c1S(=O)(=O)N1CCCC(C(=O)Nc2cccc(CC)c2)C1 (stereo not given),115,107
CN(C(=O)Cn1c(=O)n(CCCS(=O)(=O)C2CCCCC2)c(=O)c2ccccc21)c1ccccc1,107,109
COc1cc(OC)c(N(C)C(=O)c2sc3nc4n(c(=O)c3c2C)CCCCC4)cc1Cl,104,102
COc1cccc(-n2c(=O)c3sc4ccccc4c3n(CC(=O)Nc3ccccc3C)c2=O)c1,102,105
COc1ccccc1N1CCN(C(=O)CSc2nc(-c3ccc(C(C)C)cc3)no2)CC1,97,92
O=C(NCCC1=CCCCC1)c1ccc2c(=O)n3nc(Nc4ccccc4)sc3nc2c1,105,110
CCOc1ccccc1CN(CCc1ccc2c(c1)OCO2)Cc1cc(OC)c(OC)cc1OC,99,98
Cc1cc(C)c2c(=O)cc(C(=O)Nc3ccc(S(=O)(=O)N(C)Cc4ccccc4)cc3)oc2c1,107,116
Cn1cc(CN(C(=O)Nc2ccc(Cl)c(Cl)c2)C2CCCCC2)c2ccccc21,107,107
COc1cc(C2Oc3nc(SC)nnc3-c3ccccc3N2C(C)=O)cc(Cl)c1OC (stereo not given),111,112
COc1ccccc1NC(=O)c1cc(S(=O)(=O)NCCc2ccccc2)ccc1F,104,108
COc1ccc(C2=NC3(CCCCC3)N(CC(=O)Nc3ccc(C(C)C)cc3)C2=O)cc1,110,110
COc1ccccc1N1CCN(Cc2nnc(-c3ccccc3C)o2)CC1,107,111
Cc1ccc(CCNC(=O)c2nnc(Cc3cccc(F)c3)o2)cc1,105,108
COc1ccc(S(=O)(=O)NCCc2sc3nc(-c4ccc(C)cc4)nn3c2C)cc1C,103,105
O=C(CSc1c2c(nc3ccc(Cl)cc13)CCCC2)NCc1ccccc1Cl,102,105

# (next part)
SMILES,PV pol inh,PV pol inh intensity
Cc1cc(N2CCN(c3ccc(F)cc3)CC2)n2nc(-c3ccc(Cl)cc3)nc2n1,111,114
O=c1c2sc3ccccc3c2n(Cc2ccc(F)cc2)c(=O)n1Cc1ccccc1,105,99
Cn1nnnc1SCCNCc1ccc(OCc2ccccc2)cc1,105,106
Cc1ccc(C)c(CN2CCCN(CC(=O)Nc3ccc(C)c(C)c3)S2(=O)=O)c1,106,102
COc1ccc(NC(=O)C(c2ccccc2)N(C)C(=O)/C=C\c2ccc3c(c2)OCO3)cc1 (stereo not given),103,105
CCc1ccc(NC(=O)c2cnc3c(-c4ccccc4)c(C)nn3c2C)cc1,113,120
CCCCSCCCNC(=O)c1c[nH]c2ccc(S(=O)(=O)Nc3cccc(OC)c3)cc2c1=O,105,100
CCc1ccc(-n2nnc(-c3nc(-c4cccs4)no3)c2N)cc1,112,111
COc1ccc(Cl)cc1NC(=O)c1cnc(N2CCCCC2)c2ccccc12,112,107
CCCCc1ccc(NC(=O)c2cccn(Cc3ccc(Cl)cc3)c2=O)cc1,105,110
COc1ccccc1CN1CCN(C(=O)COc2cccc(C)c2)CC1,97,93
Cc1cccc(N(C)C(=O)c2cc(S(=O)(=O)N3CCCCC3)c[nH]2)c1,107,110
CN(C)c1ccc(C(CNC(=O)Cc2ccc(Cl)cc2)N2CCOCC2)cc1 (stereo not given),102,107
CCc1ccc(CNC(=O)c2cc(=O)[nH]c3ccc(S(=O)(=O)N4CCCCC4)cc23)cc1,114,108
Cc1ccc(NC(=O)CCC(=O)N2Cc3ccccc3Oc3ncccc32)c(C)c1,109,109
Cc1ccccc1-c1nc(SCC(=O)NCc2ccco2)c2c(=O)n(C)c(=O)n(C)c2n1,100,106
COc1cccc(-c2n[nH]c3c2C(c2ccccn2)N(C)C3=O)c1 (stereo not given),102,101
CCOC(=O)c1ccc(NC(=O)Cn2cc(C(=O)c3ccc(Cl)cc3)c(=O)c3ccc(C)nc32)cc1,126,134
O=c1c2sccc2n(Cc2cc(=O)n3ccccc3n2)c(=O)n1-c1cccc(C(F)(F)F)c1,109,112
CCc1ccc(C2CC(=O)c3c([nH]c(C(=O)OC4CCCCCC4)c3C)C2)cc1 (stereo not given),105,106
CCc1ccccc1N(CC)C(=O)c1cc2c(s1)-c1ccccc1SC2,107,107
CC(=O)Nc1ccc(S(=O)(=O)Nc2ccc(-c3cn4c(C)csc4n3)cc2)cc1,109,117
Cc1cccc(C)c1NC(=O)c1cc(S(=O)(=O)N2CCc3ccccc3C2)ccc1F,104,95
CCC(Oc1ccccc1)C(=O)Nc1nnc(S(=O)(=O)Nc2ccccc2)s1 (stereo not given),103,108
COc1cc(-c2oc3ccc(C)cc3c(=O)c2O)cc(OC)c1OC,113,117
COC(=O)c1ccc2c(=O)n3nc(Nc4ccc(F)cc4F)sc3nc2c1,111,109
COc1ccc(CC(=O)N2CC(=O)Nc3ccc(F)cc3C2c2ccccc2)cc1 (stereo not given),106,110
CCOc1ccc(Cn2c(CNS(=O)(=O)c3c(C)cc(C)cc3C)nc3cccnc32)cc1,107,119
Cc1ccc(Cl)cc1-n1c(=O)c2sc3ccccc3c2n(Cc2ccccc2)c1=O,106,112
O=C(NCCc1ccccc1)c1nn(-c2ccccc2F)nc1CO,111,109
Cc1cc(C)cc(-n2ccnc2SCC(=O)Nc2ccc(C)c(Cl)c2)c1,106,111
CC(C)(C)c1ccc(C(=O)NC2(C(F)(F)F)NC(=O)N(CCc3ccccc3)C2=O)cc1 (stereo not given),105,106
Cc1ccc(NC(=O)CCc2nc3cccnc3n2-c2ccccc2)cc1Cl,105,110
CCc1cccc(CC)c1NC(=O)Cn1nnc2sc(-c3ccccc3)cc2c1=O,105,103
Cc1ccc2c(CNCc3ccc(C)o3)c(C(=O)O)n(Cc3ccccc3C)c2c1,104,108
Cc1cccc(C)c1NC(=O)CCS(=O)(=O)c1cccc2nonc12,107,105
CCOc1ccc(CCNC(=O)CCc2c(C)nc3c(-c4ccccc4)c(C)nn3c2C)cc1OCC,109,112
CCOc1ccccc1CNC(=O)CCCn1c(=O)c2cccn2c2ccc(F)cc21,109,112
O=C(Cc1ccc(Cl)cc1)Nc1nnc2n1CCS2,104,103
Cc1ccccc1C(=O)Nc1ccc(C(=O)OCc2cc(=O)n3nc(C(C)C)sc3n2)cc1,107,106
CN(c1ccccc1)S(=O)(=O)c1nnc(NC(=O)c2ccco2)s1,109,111
Cc1cc(C)cc(NC(=O)CCS(=O)(=O)c2ccc3c(c2)oc(=O)n3C)c1,99,102
COc1ccc(C)cc1S(=O)(=O)Nc1cccc(-c2ccc(N3CCCC3)nn2)c1,108,106
C=CCc1c(C)nc2nc(SCC(=O)Nc3ccc(OCC)cc3)nn2c1C,108,99
Cc1nc2cc(-c3cccc(F)c3)nn2c(C)c1CCC(=O)NC1CCCCC1,104,103
Cn1nnc2c(NCc3c(F)cccc3F)ncnc21,104,108
COc1ccc(CNC(=O)Cn2c(=O)nc(-c3ccccc3F)c3cc(Cl)ccc32)cc1OC,102,97
Cc1ccc(NC(=O)c2sc3nc(-c4ccc(F)cc4)cn3c2C)c(C)c1,108,104
COc1ccc(CNC(=O)c2cc(Nc3ccccc3C)nc3ccccc23)cc1,109,108
O=C(NCc1ccccc1Cl)c1cc2ccccc2o1,115,109

# Rewritten as tab-separated lines: two of the compounds above.
Molecule	PV pol inh	PV pol inh intensity
COc1ccc(C)cc1S(=O)(=O)Nc1cccc(-c2ccc(N3CCCC3)nn2)c1	108	106
C=CCc1c(C)nc2nc(SCC(=O)Nc3ccc(OCC)cc3)nn2c1C	108	99

# The list continues.
SMILES,PV pol inh,PV pol inh intensity
Cc1ccc(-c2cc(C(=O)NCc3cnn(C)c3)c3cc(Br)ccc3n2)cc1,109,112
CC(C)NC(=O)CCCN1C(=O)CCn2nc(-c3cccn3C)cc21,103,109
CCOc1ccc(S(=O)(=O)N(CC(=O)Nc2ccc(OC)c(Cl)c2)c2ccccc2)cc1,106,109
CCc1nnc(NC(=O)c2nc(S(=O)(=O)Cc3ccc(C)cc3)ncc2Cl)s1,103,103
CCOc1ccc(CC(=O)NC2CC(=O)N(c3ccc(C)c(C)c3)C2)cc1 (stereo not given),101,97
COc1ccc(OC)c(NC(=O)c2c(NCc3ccc(OC)c(OC)c3)sc3c2CCC3)c1,113,115

# In the list so far, 12 contain an NH in an aromatic ring:
SMILES,PV pol inh,PV pol inh intensity
Clc1ccc(C(c2ccccc2)c2c[nH]c3ccccc23)s1 (stereo not given),109,100
CC(C)c1ccc(NS(=O)(=O)c2ccc3nc(-c4ccccc4)[nH]c3c2)cc1,110,109
CCOC(=O)c1c(C)[nH]c(C)c1S(=O)(=O)N1CCN(c2cccc(C(F)(F)F)c2)CC1,107,101
Cc1nc2c(C(=O)NCCc3ccc(Cl)cc3)c[nH]n2c(=O)c1Cc1ccccc1F,106,108
CCOc1ccc(NS(=O)(=O)c2ccc3[nH]cc(C(=O)N4CCCCCC4)c(=O)c3c2)cc1,113,107
COc1cccc(-c2nc(SCc3cccc(Br)c3)n3[nH]c(=O)cc3n2)c1,99,105
CCOC(=O)c1c(C)[nH]c(C)c1S(=O)(=O)N1CCCC(C(=O)Nc2cccc(CC)c2)C1 (stereo not given),115,107
CCCCSCCCNC(=O)c1c[nH]c2ccc(S(=O)(=O)Nc3cccc(OC)c3)cc2c1=O,105,100
Cc1cccc(N(C)C(=O)c2cc(S(=O)(=O)N3CCCCC3)c[nH]2)c1,107,110
CCc1ccc(CNC(=O)c2cc(=O)[nH]c3ccc(S(=O)(=O)N4CCCCC4)cc23)cc1,114,108
COc1cccc(-c2n[nH]c3c2C(c2ccccn2)N(C)C3=O)c1 (stereo not given),102,101
CCc1ccc(C2CC(=O)c3c([nH]c(C(=O)OC4CCCCCC4)c3C)C2)cc1 (stereo not given),105,106

# Compound activity (PubChem BioAssay)
